# T cruzi repl: T. cruzi replication inhibition; T. cruzi beta-gal in NIH3T3, luminescence, 90 h; inhibition, % (test concentration not listed); hit rate 1.4% among 300,000; AID 1885;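 active means mean inhibition across valid replicates above about 55%, limit read from the data; inconclusive means mean below that limit but half or more replicates reach it; inactive means mean below it, under half of replicates reach it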;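 further: signal also drops with host cell toxicity which is not excluded here; 0% = plate median of DMSO wells and 100% = zero luminescence signal; higher percent means less beta-gal luminescence so fewer parasites; stock transfer was 50 nL into about 50 µL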
# MLL AF4-AF9 inh: blocks AF4 peptide binding to human AF9; P42568; AlphaScreen, biotin-AF4 peptide binding to FLAG-AF9; AID 651704; inhibition, % at 10 µM; hit rate 0.47% among 350,000;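 active means every replicate reaching a set inhibition limit, whatever the replicate mean, cut at about 25% in these data; inconclusive means mean inhibition reaches that limit but some replicates miss it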;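 further: 0% = plate neutral control median and 100% = total signal loss; the record names both 10 and 1 µM as test concentration; the first replicate is given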
# Beta cell apopt: blocks beta cell apoptosis | INS-1E cytokine-induced death, ATP luminescence, 48 h; percent of positive-control rescue, neutral wells zero | protection from apoptosis, % (concentration not given with the values) | hit rate 0.8% among 300,000;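 active means all replicates at 75% or more, or half of them and the mean; inconclusive means half reach 75% but not the mean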;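 further: 0% = cytokine-treated negative control wells and 100% = positive control rescue; higher means more ATP so stronger rescue from cytokine killing; wells of about 40 µL received 100 nL stock; the first replicate is given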
# LANA-H2A inh: blocks KSHV LANA binding to histone H2A/H2B; cell-free LANA-H2A/H2B peptide, fluorescence polarization; inhibition, % (concentration not given with the values); hit rate 0.6% among 320,000; in the data active means inhibition mostly above about 10%, no sharp cut-off; inactive means mostly below about 6.7%;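 further: stock transfer was 7.5 nL into about 10 µL; 0% = median of vehicle wells and 100% = median of positive control wells; one replicate is shown; the record names a cut of 25% in any replicate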
# Target sequence (Q9QR71 whole entry, looked up): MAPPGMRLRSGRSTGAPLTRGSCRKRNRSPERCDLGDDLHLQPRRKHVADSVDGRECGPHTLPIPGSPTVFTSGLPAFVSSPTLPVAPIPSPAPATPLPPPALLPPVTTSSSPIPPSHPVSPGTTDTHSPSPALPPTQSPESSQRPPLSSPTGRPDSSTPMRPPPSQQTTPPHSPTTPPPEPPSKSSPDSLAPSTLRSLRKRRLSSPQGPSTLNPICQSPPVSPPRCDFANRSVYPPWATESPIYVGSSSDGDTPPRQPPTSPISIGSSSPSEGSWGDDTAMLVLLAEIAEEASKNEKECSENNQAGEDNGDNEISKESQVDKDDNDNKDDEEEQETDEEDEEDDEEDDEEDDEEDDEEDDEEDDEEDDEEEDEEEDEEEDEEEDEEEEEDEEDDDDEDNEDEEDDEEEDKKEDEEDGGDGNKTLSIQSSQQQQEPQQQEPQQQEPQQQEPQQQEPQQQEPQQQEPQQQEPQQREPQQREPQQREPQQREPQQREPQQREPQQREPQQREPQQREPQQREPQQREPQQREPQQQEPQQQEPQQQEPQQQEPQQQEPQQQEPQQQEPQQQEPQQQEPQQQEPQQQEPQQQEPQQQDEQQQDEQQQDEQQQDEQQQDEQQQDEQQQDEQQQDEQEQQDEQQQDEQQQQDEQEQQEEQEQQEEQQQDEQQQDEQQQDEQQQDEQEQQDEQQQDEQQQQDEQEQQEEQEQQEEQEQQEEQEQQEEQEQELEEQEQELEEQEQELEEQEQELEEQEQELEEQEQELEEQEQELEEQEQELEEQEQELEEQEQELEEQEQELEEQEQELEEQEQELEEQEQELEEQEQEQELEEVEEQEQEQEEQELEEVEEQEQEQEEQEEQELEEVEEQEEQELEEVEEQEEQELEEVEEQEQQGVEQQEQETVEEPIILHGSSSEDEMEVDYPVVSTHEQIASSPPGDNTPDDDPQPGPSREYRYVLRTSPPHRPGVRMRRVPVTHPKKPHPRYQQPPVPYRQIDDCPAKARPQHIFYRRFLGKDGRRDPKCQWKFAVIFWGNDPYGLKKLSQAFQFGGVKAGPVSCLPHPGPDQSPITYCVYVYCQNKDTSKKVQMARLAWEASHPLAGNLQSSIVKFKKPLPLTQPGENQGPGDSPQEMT
# Vif TR-FRET: inhibitors of Vif binding to APOBEC3G peptide, primary screen, biochemical, TR-FRET, GST-Vif 1-94, biotin-A3G peptide, dose response retest (AID 1117319); TR-FRET GST-Vif / biotin-A3G peptide binding; higher % means a stronger effect; test concentration not given here; strong numbers were not always called active; hit rate 0.57% among 260,000; inhibition, %; hits with a dose series show IC50 in µM;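 active means above the screen mean plus three standard deviations and confirmed in dose response; inconclusive means results disagree or hit not tested in dose response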;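 further: Vif residues 1-94 fused to GST binding biotinylated APOBEC3G peptide 110-148; 0% = full assay without inhibitor and 100% = GST in place of GST-Vif; retest series ran down from 100 µM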
# A1 inh: inhibitors of the anti-apoptotic protein A1, read as caspase activation; caspase activation, % (test concentration not listed); hit rate 0.066% among 330,000; MEF A1-2A-BIM cells, Caspase-Glo 3/7 luminescence, 3 h; percent of clofoctol response, vehicle zero;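 active means over half of replicate activation scores above 10%, or exactly half above 10 with the replicate mean above 10; inconclusive means replicate mean below 10 yet half the replicates above 10; inactive means over half of replicates below 10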;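 further: wells of about 30 µL received 50 nL stock; many hits fall short of the cut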
# RanGTP-Imp inh: inhibitors of RanGTP-importin-beta interaction, primary screen, biochemical, FRET, CFP-Ran, YFP-importin-beta, homogeneous. inhibition, % (test concentration not listed). hit rate 1.1% among 300,000. cell-free CFP-Ran/YFP-importin-beta FRET ratio;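 active means most replicates above 15%; inconclusive means exactly half above 15%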;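 further: 0% = DMSO wells and 100% = Ran loaded with GDP instead of GTP; wells of about 40 µL received 100 nL stock; the first replicate is given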
# Calb FLC: C. albicans growth modulation with fluconazole; C. albicans CaCi-2 (fluconazole-resistant clinical isolate) + fluconazole, Alamar Blue growth, 48 h; growth inhibition, % (no concentration beside the values); hit rate 0.57% among 300,000; AID 1979;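 active means most replicates above 75%; inconclusive means exactly half above 75%; inactive means most below 75%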;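 further: all wells also contain fluconazole at 8 µg/ml as a sub-toxic cotreatment; 0% = median of DMSO wells and 100% = median of geldanamycin control wells; wells of about 8 µL received 7.5 nL stock; the first replicate is given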
# * = called active by the depositor; ? = inconclusive; nt = not tested or not shown; & = joins results of further samples.
SMILES,T cruzi repl,MLL AF4-AF9 inh,Beta cell apopt,LANA-H2A inh,Vif TR-FRET,A1 inh,RanGTP-Imp inh,Calb FLC
CC(=O)Nc1cc(S(=O)(=O)Nc2ccccc2C)c(C)cc1C,3,nt,1,-2.5,11%,2.3,4.5,-14
Cc1ccc(C(=O)O)cc1NC(=O)CCc1ccccc1,-12,-2.7,-5,-4.2,-1%,0.2,-2.1,-14
CC/C(C)=C1\SC(N2CCN(C(C)=O)CC2)=NC1=O,3,nt,-1,-4.6,6%,-0.4,2.4,14
O=S(=O)(c1ccc2ccccc2c1)n1cnc2ccccc21,-9,nt,-9,-3.1,-2%,0.4,-1.1,nt
O=C(CSc1nc2ccccc2o1)N/N=C/c1ccc(C(=O)O)cc1,-5,-7.1,-3,3.1,nt,-0.1,-2.0,-2
COc1ccc(-c2nc3ccccc3c(=O)n2N)cc1,2,nt,-2,-3.7,0%,-0.4,4.0,1
C[C@H](CO)N1C[C@H](C)[C@@H](CN(C)Cc2ccc(C(=O)O)cc2)Oc2c(cccc2N(C)C)C1=O,nt,-0.9&-0.2,-2,2.7,nt,-0.7,nt,nt
COc1ccccc1N1C(=O)CC(N(O)c2ccccc2)C1=O (stereo not drawn),-6,-2.5,-3,5.9,nt,0.0,0.2,-2
CCN(CC)c1nc(N)c(C#N)c(CC#N)c1C#N,26,-1.4,2,4.1,nt,-1.1,9.6,-10
CCN(Cc1cnn(C)c1)Cc1nc(Cc2ccccc2Cl)no1,5,-11,0,-6.0,-3%,0.0,-1.2,10
COc1ccccc1NC(=O)c1cc(=O)[nH]c2ccccc12,10,5.4,nt,3.3,6%,0.6,3.3,4
COc1cccc(OC)c1OCCCN1CCOCC1,3,nt,-6,-0.2,28%,0.4,-2.2,?
O=C1CC(N2CCSCC2)C(=O)N1c1cccc(Cl)c1 (stereo not drawn),-12,-1.0,-9,-1.9,3%,0.3,-3.8,28
COc1ccc(S(=O)(=O)N(C)C[C@H]2Oc3ccc(NC(=O)Nc4ccc(C(F)(F)F)cc4)cc3C(=O)N([C@H](C)CO)C[C@@H]2C)cc1,nt,0.4&-2.0,7,3.0,nt,0.3,nt,nt
Cc1cc(Nc2ccccc2Cl)n2nnnc2n1,-8,nt,-9,3.3,25%,1.4,1.8,4
CC12CS(=O)(=O)CC1SC(=S)N2Cc1ccccc1 (stereo not drawn),-16,-0.3,0,2.3,6%,-0.6,6.9,1
COc1ccc(S(=O)(=O)NC2CC(=O)N(c3ccccc3)C2)cc1C (stereo not drawn),-7,-0.7,nt,1.4,0%,-0.9,5.3,-10
O=C(CSc1nnc2n(C3CCCC3)c(=O)c3ccccc3n12)N1CCCCCC1,11,nt,4,0.2,-6%,-0.8,-2.7,1
Nc1nc(NCCOCCO)nc(NC2CCCCC2)c1[N+](=O)[O-],-33,3.7,-5,6.1,2%,-1.1,1.3,9
COc1ccc(/C(O)=C2/C(=O)C(=O)N(c3ncccn3)C2c2ccc(OC)c(OC)c2)cc1 (stereo not drawn),-1,nt,0,nt,7%&-1%,0.4,2.5,12
Cc1nc(C/C(=N\Nc2ccccc2)c2ccc(O)cc2O)cs1,-11,8.4,-9,2.7,13%,0.3,-2.9,-71
Cc1ccc(CS(=O)(=O)c2cn(CC(=O)N3CCOCC3)c3ccccc23)cc1,7,1.8,-4,-3.9,nt,0.0,7.1,8
Cc1ccc(C(=O)COC(=O)CCNS(=O)(=O)c2ccccc2F)cc1,nt,1.9,-10,0.7,nt,-0.9,nt,nt
O=C1OC(c2ccc(Cl)cc2)/C(=C(/O)c2ccccc2)C1=O (stereo not drawn),11,nt,3,1.9,4%,0.4,-0.1,-1
CCN(CC)S(=O)(=O)c1ccc(N2CCOCC2)c(NC(=O)c2cc(=O)[nH]c3ccccc23)c1,11,-1.0,2,0.9,-3%,0.6,-1.4,7
C(=N\Nc1nn2cnnc2c2ccccc12)/c1ccco1,-1,2.0,5,3.3,11%,0.2,?,11
Cc1oc(C(C)(C)C)cc1C(=O)Nc1ccc2c(c1)OCO2,11,nt,nt,-4.7,nt,0.6,-0.1,1
O=C(/C=C/c1ccccc1)NC(N1CCOCC1)C(Cl)(Cl)Cl (stereo not drawn),-6,1.6,1,-1.5,nt,0.5,-4.1,4
COc1cc(/C=C2\SC(=Nc3ccccc3)N(Cc3ccco3)C2=O)ccc1OC(C)C(=O)O (stereo not drawn),-6,4.3,nt,2.1,-6%,0.1,4.8,22
CCN(CC)c1ccc(S(=O)(=O)N2CCOCC2)cc1NC(=O)c1cc(=O)c2ccccc2o1,10,0.3,24,-2.6,0%,0.3,-1.9,0
CCCNC(=S)N1CCC(C(=O)c2ccc3c(c2)OCCO3)CC1,-5,0.1,-4,-0.2,-4%,-1.1,-1.4,-14
COC(=O)c1n[nH]c2ccccc12,-15,nt,-7,0.7,4%,0.1,24*,7
Cc1[nH]c2ccccc2c1C(=O)C(=O)N1CCN(c2ccccc2Cl)CC1,22,1.1,-3,3.9,nt,-0.4,2.7,35
Nc1nc(N)nc(COc2ccccc2)n1,-4,-1.7,1,0.8,11%,0.4,?,6
CCN(CC(=O)Nc1sc2c(c1C#N)CCC(C)C2)CC(=O)NC1CCS(=O)(=O)C1 (stereo not drawn),2,0.1,-1,-1.2,-7%,1.3,2.9,-3
COc1cc(OC)cc(C(=O)N[C@H](C(=O)OCn2nnc3ccccc3c2=O)C(C)C)c1,19,2.5,-6,-5.4,-2%,0.7,-1.1,30
CC(=O)N1c2c(cc(Br)cc2S(=O)(=O)Nc2c(C)n(C)n(-c3ccccc3)c2=O)CC1C (stereo not drawn),7,-0.4,-3,-0.9,nt,0.1,-5.3,-3
CSc1nc(NCc2ccco2)c2c3c(sc2n1)CN(C)CC3,16,nt,-10,1.1,21%,-0.7,4.4,-21
CCOc1ccc(S(=O)(=O)Nc2nc3ccc(OC)cc3s2)cc1,-23,nt,-1,3.6,-1%,-0.8,?,-6
Cc1cc(OCC(=O)N(C)C2CCCCC2)ccc1Cl,18,0.3,-3,-0.7,-11%,1.0,-4.1,0
COc1cc(OC)nc(NC(=O)CSc2nc3ccccc3o2)n1,-6,nt,-2,1.9,-2%,1.0,4.1,2
O=C(CCn1nnc2ccccc2c1=O)NCC1CCC(C(=O)O)CC1 (stereo not drawn),-2,nt,-9,2.3,4%,-0.1,2.3,-1
CCC(=O)N(C)CCc1cc2c(c(OC)c1/C=N/Nc1ccc(C(=O)O)cc1)OCO2,0,0.0,-4,-0.7,nt,0.9,2.0,0
O=c1[nH]c(-c2ccccn2)cc2ccccc12,-4,nt,-5,0.4,3%,-4.6,0.6,3
CCC(C)NC(=O)Cn1cnc([N+](=O)[O-])c1 (stereo not drawn),-2,-0.8,1,-7.4,nt,0.0,3.7,-29
CCN(Cc1cccs1)C(=O)c1cccc(S(=O)(=O)N2CCN(C)CC2)c1,nt,-1.3,-5,-0.7,nt,0.0,nt,nt
O=C(NCc1ccccc1)c1cc2ccc(O)cc2oc1=O,-13,-0.7,0,-1.7,nt,-8.3,186*,9
CCOc1ccc(NC(=O)C2=C(C)NC(=S)NC2c2ccc(O)c(OC)c2)cc1 (stereo not drawn),-9,-14,-7,5.2,nt,0.1,-6.5,-1
CC(=O)Nc1ccc(S(=O)(=O)N[C@@H](C)C(=O)OCc2cc([N+](=O)[O-])cc3c2OCOC3)cc1,-4,-23,-7,-0.6,0%,-1.0,2.8,-6
Cc1ccccc1CN1CCc2cc([N+](=O)[O-])ccc21,12,7.9,-3,4.8,3%,1.2,0.6,1
# Remaining list, next part:
SMILES,T cruzi repl,MLL AF4-AF9 inh,Beta cell apopt,LANA-H2A inh,Vif TR-FRET,A1 inh,RanGTP-Imp inh,Calb FLC
CS(=O)(=O)c1ccc(-c2nnn(CC(=O)N3CCCCC3)n2)cc1,-5,-1.1,-2,1.7,nt,-0.4,-2.2,-2
COC(=O)COc1ccc(C(=O)Cn2c(NCCCO)nc3ccccc32)cc1,-11,-0.8,nt,4.8,nt,0.5,4.0,1
CC(=O)/C(C#N)=C1\NC(=O)C(Cc2ccccc2)S1 (stereo not drawn),10,nt,-4,5.4,-1%,1.4,?,4
O=C(/C=C/c1ccc(Cl)cc1)Nn1c(-c2cccs2)nc2ccccc2c1=O,25,-2.9,6,-0.2,nt,-1.0,1.6,?
Cc1ccccc1C(=O)N1CCC(C(N)=O)CC1,-16,nt,-4,0.6,25%,-0.4,4.0,-2
O=C(CNc1ccccc1)N/N=C/c1ccc([N+](=O)[O-])o1,64*,nt,13,0.3,21%,-0.1,1.2,18
Cc1ccccc1CS(=O)(=O)Cc1ccc(C(=O)NCCCN2CCOCC2)o1,-2,nt,-6,-1.2,-5%,-0.1,6.5,-1
Cc1ccc(C)c(NC(=O)c2cc(S(=O)(=O)N3CCCCC3)ccc2N2CCOCC2)c1,nt,-4.5,0,-3.0,-1%,-0.2,nt,nt
Cc1nc2c(C)cccn2c1C(=O)N/N=C/c1ccccc1[N+](=O)[O-],-2,nt,0,-2.2,-10%,-0.8,-1.1,8
COc1ccc(CCNC(=O)CS(=O)Cc2nc(-c3ccccc3F)oc2C)cc1OC (stereo not drawn),1,-0.3,0,0.1,0%,-0.3,1.1,-3
CCN1CCN(c2nn3c(=O)c4ccccc4nc3c3ccccc23)CC1,6,nt,26,1.2,-6%,-0.1,-1.9,-1
O=C(NCc1ccccc1F)C(=O)NCC1CCCN1S(=O)(=O)c1cccs1 (stereo not drawn),10,3.6,-5,-2.9,0%,-1.2,8.3,-2
Cc1ccc(C(C)C)c(OCCNC(=O)c2cncc(Br)c2)c1,21,nt,3,7.2,0%,-0.6,-0.3,5
CCN(CC)CCNC(=O)c1ccc(NC(=O)c2ccc(C(=O)c3ccccc3)cc2)cc1,-40,-7.6,0,-4.9,-10%,0.1,7.5,-2
CC(=O)NS(=O)(=O)c1ccc(NC(=O)[C@@H]2CCCN2S(=O)(=O)c2ccc(Cl)cc2)cc1,nt,2.4,3,1.8,nt,-0.8,nt,nt
COc1cc(C)c(CN2CCC(n3nccc3NC(=O)C3CC3)CC2)cc1C,8,0.1,0,0.2,0%,0.1,2.6,-4
Cc1nnc(SC(C)C(=O)Nc2ncc(Cl)cc2Cl)n1Cc1ccccc1 (stereo not drawn),-11,nt,3,-0.5,3%,0.3,6.3,3
CC(C)CCNc1nc(N)c([N+](=O)[O-])c(NC2CCCCC2)n1,0,-2.6,-10,-0.2,-1%,-1.3,?,-4
Cc1cc(C)c(S(=O)(=O)NCc2csc(C)n2)c(C)c1,-6,0.5,0,-0.8,-6%,0.4,1.8,-4
O=C(CCNC(=O)c1ccc([N+](=O)[O-])cc1)NNC(=O)c1ccccc1F,nt,10,1,0.2,-12%,0.4,nt,nt
CC(C)Oc1ccccc1/C=N/NC(=O)C1CC1,-14,0.2,nt,-11,nt,0.0,-0.2,-2
C=CCn1c(=O)c2c(nc3n2CCN3c2cccc(Cl)c2C)n(C)c1=O,17,nt,-3,-0.7,2%,-0.1,9.1,3
c1ccc(Cc2nc3ccccc3[nH]2)cc1,-6,-4.4,-1,4.2,nt,-0.5,-2.2,nt
Cc1c(C(=O)N2CCN(c3ccccc3F)CC2)sc2nc(-c3ccccc3)cn12,20,nt,6,0.6,93µM*,-0.1,1.2,9
